# High-throughput results as filed in PubChem.
# Biofilm kill mix – mixtures killing C. albicans biofilm; C. albicans biofilm persisters + clotrimazole, fluorescence viability; primary screen in compound mixtures of four per well; inhibition, % at 7.6 µM; hit rate 0.02% among 120,000; AID 1242;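 active = inhibition above 30.3% in the primary screen of four-compound pools, then above 30% when the compound was retested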;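 note: compounds exposed to preformed 24 h biofilms for 48 h; the number belongs to the whole pool; some results filed as inactive read as strong as hits; inactives centre near 12; 0% = biofilm with clotrimazole alone and 100% = kill control; retested singly at about 60 µM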
#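 Probe or stimulus – Clotrimazole 50 µg/mL co-treatment · System – C. albicans biofilms · Schedule – 24 h biofilm formation, then 48 h compound exposure, 37 °C · Evaluation – percent inhibition of biofilm viability · Technique – 2-h Alamar Blue fluorescence, 535/590 nm excitation/emission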
# The depositor's hits bear a star. A portion of the library (hit frequency here may not be typical).
SMILES,Biofilm kill mix
O=[N+]([O-])c1ccccc1N(CC1CO1)S(=O)(=O)c1ccccc1 (stereo not drawn),18
COc1ccccc1N1CCN(C(=O)CNC(=O)c2cn(-c3ccccc3OC)c(=O)c3ccccc23)CC1,13
COC(=O)CN1C(=S)N(c2ccc(F)cc2)C(=O)C1CC(=O)Nc1ccc(OC)cc1 (stereo not drawn),24
CCN1C(=O)C(CC(=O)Nc2ccc(OC)cc2)N(CCCN2CCN(c3ccc(F)cc3)CC2)C1=S (stereo not drawn),13
O=C(/C=C/Nc1ccccc1C(=O)O)c1cccs1,21
Cc1c(Br)c([N+](=O)[O-])nn1CC(=O)Nc1ccc(C(C)C)cc1,10
C/C(=N\NC(=O)c1cccc([N+](=O)[O-])c1)c1cccs1,25
COc1ccc(C(C#N)c2ccc(Cl)nn2)cc1 (stereo not drawn),14
Cc1ccc(-n2c(=S)[nH]c3c(oc4ccccc43)c2=O)cc1C,5
Cc1cccnc1NC1(C(F)(F)F)N=C2SCCN2C1=O (stereo not drawn),11
CCOC(=O)c1nn(-c2ccc(F)cc2)cc1O,5
COc1ccc(C(=O)CN2Cc3ccccc3C2=N)cc1,21
COc1cccc(C2C(C(C)=O)=C(O)C(=O)N2CCNCCO)c1 (stereo not drawn),11
O=C(NNC(=O)C1CCCN(S(=O)(=O)c2cccc(F)c2)C1)C1CC1 (stereo not drawn),-10
COc1cccc(C(=O)N/N=c2\sc3ccccc3n2C)c1,17
CCOC(=O)CNc1nc(Cl)nc(Nc2ccc(Cl)cc2)n1,15
CCC1CCCCN1CC(=O)Nc1cc(OC)c(OC)cc1C#N (stereo not drawn),7
CC(C)(O)P(=O)(O)CCc1ccccc1,16
CC(C)C(=O)N1CCC(c2nc(-c3ccc(S(=O)(=O)N4CCN(C)CC4)cc3)no2)CC1,0
COc1ccc(C(=O)C2CCCN(C(=O)c3n[nH]c4c3CCCC4)C2)cc1OC (stereo not drawn),1
Cc1ccc(-c2nc(NCc3ccco3)n(S(C)(=O)=O)n2)cc1,17
Cc1nc2ccc(NC(=S)NC3CCCCC3)cc2nc1C,15
c1ccc(-c2ccn3nnnc3n2)cc1,15
COc1cc(=O)n(C)c2c(O)cccc12,15
CCOC(=O)/C=C/C(=O)OCC(=O)Nc1ccc(Cl)cc1Cl,6
# Going on with the list:
SMILES,Biofilm kill mix
CC(c1ccon1)N(C)Cc1cn[nH]c1-c1ccc(-c2ccccc2)cc1 (stereo not drawn),13
COc1cccc2cc(C(C)=O)oc12,20
Cc1cc(C)c2nc(SCC(=O)NCCC3=CCCCC3)cc(C)c2c1,10
CC(=O)N(O)CCCCCNC(=O)CCC(=O)N(O)CCCCCNC(=O)CCC(=O)N(O)CCCCCN,16
C/C(N)=C(/C#N)C(=O)CSc1nc2ccccc2c(=O)n1CCCO,4
COC(=O)c1cc(C#N)c(N2CCOCC2)nc1C,5
COc1ccc(C(C)=O)cc1CSc1nnc(Nc2ccc(C)cc2C)s1,22
C/C(=N\NC(=S)Nc1ccccc1C)c1ccc(O)cc1,-3
CCOC(=O)CN1CCS(=O)(=O)CC1,20
COc1ccc(-c2ccc(SC)nn2)cc1,2
O=C(NCCCN1CCOCC1)c1cccnc1,-14
COc1ccc(/C=N\NC(=O)CC(=O)Nc2cccc(Cl)c2)cc1OC,29
Cc1ccc(OCC(=O)NNC(=O)C(=O)N2CCCC2)c(C)c1,23
Cc1ccc(-c2nnc(-n3ncc(C#N)c3N)c3ccccc23)cc1C,11
CCCc1nnc2c(N(C)S(=O)(=O)c3ccccc3)nc3ccccc3n12,10
O=C(Nc1nc(-c2ccccc2)cs1)c1ccc2c(c1)S(=O)(=O)c1ccccc1C2=O,7
CCc1ccccc1NS(=O)(=O)c1ccc2[nH]cc(C(=O)NC3CCCC3)c(=O)c2c1,6
O=C(NCc1cccnc1)c1cn(-c2ccccc2)nc1-c1ccccc1,20
Cc1ccc(-n2c(SCC(=O)Nc3ncc(Cl)cc3Cl)nc3ccccc32)cc1,10
COC(=O)c1ccccc1NC(=O)NC1CCCCC1,13
COC(=O)C(C(=O)Nc1nc2ccccc2s1)C1CCCC1 (stereo not drawn),17
CN1CCc2c(OCC(=O)N3CCC(Cc4ccccc4)CC3)cccc2C1=O,11
NC(=O)Nc1ccc(Nc2ccccc2)cc1,3
CN(Cc1cccc(C(F)(F)F)c1)Cc1nc(-c2cnccn2)no1,4
CC(C)=C1Cc2ccccc2C1=O,16
# (listing goes on)
SMILES,Biofilm kill mix
COc1ccc(/C=N/Nc2cc(C)nc(-n3nc(C)cc3C)n2)cc1,7
Cc1cn(C2OC(COC(=O)c3ccccc3)C(O)C2Cl)c(=O)[nH]c1=O (stereo not drawn),5
COCCNC(=S)N1CCC(C(=O)c2ccc3c(c2)OCCO3)CC1,10
COc1ccnc(Oc2ccccc2)c1-c1ncn[nH]1,22
CCNC(=O)C12CCC(C)(C(=O)C1Br)C2(C)C (stereo not drawn),5
Cc1cc(NC(=O)c2ccc(S(=O)(=O)N(C)CC3CCCO3)cc2)no1 (stereo not drawn),5
COC(=O)c1cc(-c2ccc(S(=O)(=O)N3CCCCC3)cc2)c(C(F)(F)F)s1,19
Cc1nc(-c2cc(C#N)c(Sc3ccc(Cl)cc3Cl)nc2C)cs1,7
Cc1ccc(NC(=O)Cn2c([N+](=O)[O-])cnc2C)cc1,17
Nc1nc(-c2ccc(Cl)cc2)c(S(=O)(=O)c2ccccc2)s1,2
Fc1ccccc1-c1ccc(/C=N/Nc2nc3ccccc3[nH]2)o1,14
N#C/C(=C/c1ccc([N+](=O)[O-])cc1)C(=O)Nc1ccccc1O,18
COCCCNC(=O)/C=C1\Sc2ccccc2N(Cc2ccccc2F)C1=O,8
COc1cccc(C2=NNC(=NCc3ccccc3)SC2)c1,10
Cc1ccc(NC(=O)C(C)NS(=O)(=O)c2ccc(F)cc2)cc1C (stereo not drawn),17
O=C1c2ccccc2C(=O)c2c1ccc1c(=O)n(-c3ccccc3)[nH]c21,16
CCN(C(=O)COC(=O)/C=C/c1c(C)nn(Cc2ccc(C)cc2)c1C)C1CCS(=O)(=O)C1 (stereo not drawn),8
O=C1CCCN1c1ccc(S(=O)(=O)N2CCCCC2)cc1[N+](=O)[O-],3
Cc1cc(NC(=O)c2ccc3c(c2)C(=O)N(Cc2ccccc2)C3=O)no1,-3
C[C@@H]1CC=C[C@H]2[C@H]1C(=O)N(Cc1ccccc1)[C@H]2c1ccc(-c2ccoc2)cc1F,15
CN(C)c1nc(N(C)C)n(C(=O)c2cccs2)n1,12
CCCOC1CCCN(C(=O)CCc2nnc(Cc3cccc(C)c3)o2)C1 (stereo not drawn),8
O=[N+]([O-])c1cccc(-c2nc(-c3ccccc3)no2)c1,21
COCCCNCCCOc1ccc(C)cc1Br,-8
O=C1Nc2cc3c(cc2C1=O)sc1ccccc13,33
# Further entries follow.
SMILES,Biofilm kill mix
O=C(NC1CCCCCC1)c1cccnc1Sc1ccccc1,10
CC12CN3CC(C)(CN(C1)C3c1ccc([N+](=O)[O-])o1)C2 (stereo not drawn),14
CN(Cc1ccccc1)C(=O)c1ccc(Cl)c([N+](=O)[O-])c1,13
CCn1c(CCNC(=O)c2ccc(OC)cc2)nnc1SCc1ccc(Cl)c(Cl)c1,11
O=C1CN(C(=O)CNCc2ccccc2Cl)c2ccccc2N1,21
Cc1cccc(-[n+]2c(C)cc(C)c3c(=O)[nH]c(=O)[nH]c32)c1,9
C/C(=N\NC(=O)CSCc1ccccc1Cl)c1cccc(NC(=O)c2ccccc2)c1,12
Cc1cccc(N/C(N)=N/c2nc(C(F)(F)F)cc(C(F)(F)F)n2)c1,7
COc1cccc(N2CCN(C(=O)CCNS(=O)(=O)c3ccc4c(c3)c(=O)n(C)c(=O)n4C)CC2)c1,10
CC(=O)N1N=C(c2ccccc2OC(=O)/C=C/c2ccccc2)CC1c1ccccc1 (stereo not drawn),21
Cc1ccc(CN2C(=O)CSC2c2cccnc2)cc1 (stereo not drawn),28
COc1ccc(NC(=O)Cn2nnc3ccccc32)c([N+](=O)[O-])c1,11
COCCNC(=O)NC(=O)CN1CCN(C(c2ccccc2)c2ccccc2)CC1,1
CON(C)c1nc(OCCNC(=O)OCc2ccc(Cl)cc2C)nc(N(C)C)n1,14
Cc1cc(/C=C(/C#N)C(=O)O)c(C)n1CCC(C)C,19
Cc1ccccc1NC(=O)c1cccc(C(F)(F)F)c1,9
C=CCOC(=O)C1=C(C)NC(SCC(N)=O)=C(C#N)C1c1cccs1 (stereo not drawn),12
Cc1cc(NC(=O)CN2C(=O)S/C(=C\c3ccccc3)C2=O)no1,1
O=C1ON=C(c2cccc([N+](=O)[O-])c2)/C1=C/c1ccc(O)cc1,18
O=C(CN1C(=O)/C(=C\c2cccc(F)c2)Oc2ccccc21)N1CCN(c2ccccn2)CC1,21
Cc1ccc(C(=O)n2nnc3ccccc32)cc1[N+](=O)[O-],12
NCCCC[C@@H](C(=O)N1CCNCC1)n1cc([C@@H](N)CO)nn1,10
CC(=O)N1/C(=C/c2ccc(N(C)C)cc2)C(=O)c2ccccc21,0
Cn1cnc([N+](=O)[O-])c1Oc1cccc2ccccc12,1
Cc1ccccc1NC(=O)COC(=O)c1c[nH]c(=O)[nH]c1=O,7

# Part of the list above, reformatted.
Structure | Biofilm kill mix
Cc1cccc(N/C(N)=N/c2nc(C(F)(F)F)cc(C(F)(F)F)n2)c1 | 7
COc1cccc(N2CCN(C(=O)CCNS(=O)(=O)c3ccc4c(c3)c(=O)n(C)c(=O)n4C)CC2)c1 | 10
CC(=O)N1N=C(c2ccccc2OC(=O)/C=C/c2ccccc2)CC1c1ccccc1 (stereo not drawn) | 21
Cc1ccc(CN2C(=O)CSC2c2cccnc2)cc1 (stereo not drawn) | 28
COc1ccc(NC(=O)Cn2nnc3ccccc32)c([N+](=O)[O-])c1 | 11
COCCNC(=O)NC(=O)CN1CCN(C(c2ccccc2)c2ccccc2)CC1 | 1
CON(C)c1nc(OCCNC(=O)OCc2ccc(Cl)cc2C)nc(N(C)C)n1 | 14
Cc1cc(/C=C(/C#N)C(=O)O)c(C)n1CCC(C)C | 19
Cc1ccccc1NC(=O)c1cccc(C(F)(F)F)c1 | 9
C=CCOC(=O)C1=C(C)NC(SCC(N)=O)=C(C#N)C1c1cccs1 (stereo not drawn) | 12
Cc1cc(NC(=O)CN2C(=O)S/C(=C\c3ccccc3)C2=O)no1 | 1
O=C1ON=C(c2cccc([N+](=O)[O-])c2)/C1=C/c1ccc(O)cc1 | 18
O=C(CN1C(=O)/C(=C\c2cccc(F)c2)Oc2ccccc21)N1CCN(c2ccccn2)CC1 | 21
Cc1ccc(C(=O)n2nnc3ccccc32)cc1[N+](=O)[O-] | 12
NCCCC[C@@H](C(=O)N1CCNCC1)n1cc([C@@H](N)CO)nn1 | 10
CC(=O)N1/C(=C/c2ccc(N(C)C)cc2)C(=O)c2ccccc21 | 0

# (further entries)
SMILES,Biofilm kill mix
CCCCN1C(=O)/C(=C/C=C2\Oc3ccccc3N2CC)SC1=S,9
Cn1c(N)c(C(=O)COC(=O)c2ccc(S(=O)(=O)N3CCCCC3)cc2)c(=O)n(C)c1=O,23
CCOC(=O)NC(=S)Nc1c(C)n(C)n(-c2ccccc2)c1=O,11
O=C(NCc1cc(Br)cc(Br)c1OC(=O)c1ccccc1[N+](=O)[O-])c1ccccc1,13
CNC[C@H](O)c1ccc(O)c(O)c1,17
CCOC(=O)c1sc(=NC(=O)c2ccco2)n(C)c1C,20
O=C(COC(=O)CNC(=O)c1ccc(Cl)cc1)Nc1ccc(Cl)cc1C(F)(F)F,41
Cc1ccc(CN2CCN(Cc3cccc(-n4cccn4)c3)CC2CCO)cc1 (stereo not drawn),0
Cc1ccc(-n2ncc3c(NNC(=O)Cc4ccccc4)ncnc32)cc1,16
NC(=O)Cc1ccc(Nc2nnc(-c3ccc(O)cc3)c3ccccc23)cc1,16
CCC(C)NC(=O)Cn1nc(C(F)(F)F)c2c1CCCC2 (stereo not drawn),14
CCn1cc(C(=O)N2CCN(c3ccc([N+](=O)[O-])cc3)CC2)c(=O)c2ccc(C)nc21,18
O=c1c(C(c2ccc(Cl)cc2)c2c(O)nc3n(c2=O)CCS3)c(O)nc2n1CCS2,16
COCCCNC(=O)Cn1cnc2sc(C)c(S(=O)(=O)N3CCN(c4ncccn4)CC3)c2c1=O,17
Cc1ccccc1NC(=S)N(Cc1cccs1)C1CCCCC1,1
Cc1nn2c(N3CCN(C)CC3)c3c(nc2c1-c1ccccc1)CCCC3,16
O=C1N/C(=C/c2ccsc2)C(=O)N1c1ccccc1,14
CC(=O)c1cccc(NC(=S)NC(=O)Cc2ccccc2)c1,10
CCC[C@@H]1C[C@@]1(CCC)[C@@H](NP(=O)(c1ccccc1)c1ccccc1)c1ccc(C(=O)OC)cc1,17
Cc1ccccc1Cn1nnc(-c2ccc3c(c2)OCO3)n1,16
CSc1ccc(C2c3[nH]c4ccccc4c3CCN2C(=O)c2ccnn2C)cc1 (stereo not drawn),11
CSc1cc(-c2ccc(Cl)cc2)[nH]c(=O)c1C#N,-3
O=C(NCCc1c[nH]c2ccccc12)C(=O)NCC1OCCCN1S(=O)(=O)c1cc(F)ccc1F (stereo not drawn),11
CCCOC1OC(=O)c2c1ccc(OC)c2OC (stereo not drawn),12
CCCCc1cc2c(cn1)=C(OC(=O)c1cnc3ccccc3n1)C(C)(OC(=O)CC)C(=O)C=2 (stereo not drawn),18
# The list goes on.
SMILES,Biofilm kill mix
CC1CCCCN1C(=O)C(Cc1ccccc1)N1C(=O)C2CCCCC2C1=O (stereo not drawn),13
CCC(=O)N(Cc1ccco1)C1CC(=O)N(c2ccccc2)C1=O (stereo not drawn),5
Cc1ccc2c(c1)COc1c3ccc(C(=O)N4CCOCC4)cc3nn1-2,11
NC(=O)[C@@H]1CCCNc2c(F)cc([N+](=O)[O-])cc2C(=O)N[C@@H](CO)C(=O)N[C@@H](Cc2ccc(O)cc2)C(=O)N1,13
O=C(c1ccc(Cn2c(=S)[nH]c3cc4c(cc3c2=O)OCO4)cc1)N1CCN(c2ccccc2)CC1,14
CC(C)N(C(=S)NC1CCCCC1)c1ccccc1,7
COCCCNCCOc1ccccc1-c1ccccc1,16
Fc1ccccc1Nc1nc(NCc2ccco2)nc(N2CCOCC2)n1,8
